Bioassay records deposited in PubChem BioAssay by National Center for Advancing Translational Sciences (NCATS).
Vaccinia Venus: qHTS for Stage-Specific Inhibitors of Vaccinia Orthopoxvirus: Venus Reporter Primary qHTS. Vaccinia virus Venus reporter expression, fluorescence. Potency, µM (highest dose often 36.5 µM), without a hit: top-dose activity change, negative = inhibition, hits mostly inhibitors. 330,000 tested, 0.46% active; active means well fitted inhibition curve with a large enough effect; inconclusive means small, poorly fitted or top-dose-only effect; inactive means no such curve, though single readings can be large or run the other way; tested in A549 cells; also: nearly all actives have a fitted effect of over 30% in size; inactives centre near -10
Vaccinia mCherry: qHTS for Stage-Specific Inhibitors of Vaccinia Orthopoxvirus: mCherry Reporter Primary qHTS; 310,000 tested, 0.63% active; Vaccinia virus mCherry reporter infection, fluorescence; about a quarter of the inactives have no number; AID 720579, 2013; Potency, µM (doses to about 36.5 µM), inactives show top-dose activity change, negative = inhibition, hits mostly inhibitors; active = well fitted inhibition curve with a large enough effect; inconclusive = small, poorly fitted or top-dose-only effect; inactive = no such curve, though single readings can be large or run the other way; tested in A549 cells; also: nearly all actives have a fitted effect of over 35% in size; inactives centre near -10
* = called active by the depositor; i = inactive; ? = inconclusive; . = no result given; & = joins results of further samples; [ ] = remark or other dose. % is scaled to controls: 0 for no effect and ±100 for the full control effect; potency is read from the fitted curve at half-maximal effect.

Every second line gives: Vaccinia Venus	Vaccinia mCherry
O=C(N/N=C(\CC(=O)c1cccs1)C(F)(F)F)c1cccnc1
→ -11%	i
CCCOc1ccc(N2C(=O)CC(N(Cc3ccc(S(N)(=O)=O)cc3)C(=O)CC)C2=O)cc1 (stereo not given)
→ 1%	-6%
COc1cccc(NC(=O)CCc2c(C)nc3ncnn3c2C)c1
→ -3%	12%
Cc1onc(-c2ccccc2)c1C(=O)Nc1ccc(S(=O)(=O)N2CCCC2)cc1
→ 0%	i
CCOc1cc(S(=O)(=O)N(CC)CC)ccc1Br
→ -22%	.
COc1ccc(C(=O)NCc2ccc(-c3nc4ccccc4s3)cc2)cc1
→ -12%	-13%
CNC(=O)c1ccccc1S(=O)c1ccccc1C#N (stereo not given)
→ 12%	.
O=C(O)/C=C/C(=O)N1Cc2cc3ccccc3nc2C1
→ -4%	-2%
CC(C)Sc1nc2sccc2c(=O)n1-c1ccccc1
→ -4%	?
CCOC(=O)N1CCC(=NNC(=O)c2ccccc2F)CC1
→ -6%	-4%
Cc1ccc(NC(=O)c2ccccc2OCC(=O)c2ccc(F)cc2)cc1
→ -1%	i
Nc1nc(CSc2ccc(Cl)cc2)nc(N2CCCCC2)n1
→ -12%	-21%
COc1ccc(N2CCN(C(=O)c3ccc4c(c3)N(Cc3cc(C)ccc3C)C(=O)c3ccccc3S4=O)CC2)cc1 (stereo not given)
→ -11%	-18%
CCC(CC)NC(=O)CON=C1c2ccccc2-c2ccccc21
→ -1%	-1%
O=C(COC(=O)c1cc([N+](=O)[O-])ccc1N1CCCC1)Nc1ccccc1OC(F)F
→ -12%	i
Cn1c(=O)c2c(nc(NN=C3CCCCC3)n2C)n(C)c1=O
→ -13%	-6%
Cc1ccccc1CNC(=O)C1=Cc2ccccc2OC1
→ -8%	-4%
CN1/C(=C\C(=O)c2ccco2)C(C)(C)c2ccccc21
→ 22%	-17%
COc1ccccc1-n1c(=O)n(C)c2c(C(N)=O)nc(-c3cc(OC)c(OC)c(OC)c3)nc21
→ -6%	-3%
COc1ccc(CN(C)c2ccc(-c3nc(-c4ccc(OC)c(OC)c4)no3)cc2[N+](=O)[O-])cc1
→ -4%	-3%
CCOc1ccc(Nc2sc(C(=O)c3cccc(OC)c3)c(N)c2S(=O)(=O)c2ccccc2)cc1
→ -8%	-25%
CCOC(=O)CN1C(=O)S/C(=C/c2cccc([N+](=O)[O-])c2O)C1=O
→ 1%	-14%
Cc1ccc(N/C=C/C(=O)c2cccs2)cc1C
→ -14%	-7%
CCOC(=O)c1sc(=NC(=O)c2ccc(C)c(C)c2)n(C)c1C
→ 2%	6%
CCOc1ccc(CN2C(=O)c3ccccc3C2C(=O)NC(C)CC)cc1OC (stereo not given)
→ -19%	i
COc1cc(OC)c(OC)cc1CN1CCCC(c2[nH]ncc2-c2cccc(C(F)(F)F)c2)C1 (stereo not given)
→ -16%	-20%
O=C1CN(C(=O)c2ccc(Cl)c(S(=O)(=O)N3CCc4ccccc43)c2)c2ccccc2N1
→ -13%	?
C/C(=N\NC(=O)c1cc2ccccc2cc1O)c1ccc(C)o1
→ -15%	-6%
CCc1ccc(N2C(=O)NC(=O)/C(=C\c3cc(C)n(-c4cc(C(=O)O)cc(C(=O)O)c4)c3C)C2=O)cc1
→ -6%	-8%
O=C(NCC(c1cccnc1)N1CCN(Cc2ccccc2)CC1)C(=O)Nc1ccc(Cl)cc1 (stereo not given)
→ -20%	-11%
Cc1ccc(C2(C(F)(F)F)N=C3Sc4cc(C)cc(C)c4N3C(=O)N2)cc1 (stereo not given)
→ ?	-19%
Cc1nc(N2CCN(S(=O)(=O)c3cccs3)CC2)c2c(-c3ccccc3)c(C)sc2n1
→ ?	-30%
Cc1ccc(-c2nc(C3CCCN(S(=O)(=O)c4ccc(C(F)(F)F)cc4)C3)no2)cc1 (stereo not given)
→ 1%	.
Cc1onc(-c2ccccc2Cl)c1C(=O)NNC(=O)c1cccc(F)c1
→ 5%	-25%
CCCOc1ccc(C2/C(=C(/O)c3ccc(F)cc3)C(=O)C(=O)N2CCCN(C)C)cc1 (stereo not given)
→ -10%	-8%
CC(=O)N1c2ccc(S(=O)(=O)NCCC(=O)NCc3ccc(F)cc3)cc2CC1C (stereo not given)
→ -1%[7.34 µM]	-15%[7.34 µM]
CCCN(CCC)CCNC(=O)CN1C(=O)COc2ccc(S(=O)(=O)N3CCOCC3)cc21
→ -7%	0%
COC(=O)CNC(=O)C(C)NC(=O)CNC(=O)OCc1ccccc1 (stereo not given)
→ -17%	.
O=C1[C@H]2CCCC[C@H]2C(=O)N1CCCCN1CCN(c2nsc3ccccc23)CC1
→ -19%	?
CCOc1ccc(-c2c(C(=O)N/N=C/c3ccncc3)nnn2-c2nonc2N)cc1
→ -6%	-1%
O=C(CCC1CCCC1)N1CCN(C(=O)C2CC2)CC1
→ -4%	-14%
COc1cc2c(cc1OC)CN(c1ccc([N+](=O)[O-])cc1Cl)CC2
→ -8%	-25%
Nc1nnc(Cc2ccc(Cl)cc2Cl)s1
→ -9%	-23%
CC/C(=N\NC(=O)c1c(-c2ccccc2)noc1C)c1ccc(C)o1
→ -6%	i
O=C(Cn1nc(-c2ccc(Cl)cc2)c2ccccc2c1=O)NN1CCOCC1
→ -14%	-9%
CCOc1cccc2sc(N3CCN(C(=O)c4ccc5c(c4)CCCC5)CC3)nc12
→ -14%	-21%
COc1ccc(CNC(=O)C(C)N2C(=O)COc3ccc(C)cc32)c(OC)c1 (stereo not given)
→ -5%	-9%
COc1cc(-c2nc3ccc(C)cn3c2Nc2ccc(Cl)cc2)ccc1O
→ -11%	0%
Cc1ccc(NC(=O)c2ccc(CN3CC(=O)N4CCCCC4C3=O)cc2)c(C)c1 (stereo not given)
→ -8%&-8%	i
CC12COC3(C(=O)Nc4ccc(F)cc4)CC1CCC32C (stereo not given)
→ -11%	i
CCN(c1ccccc1)S(=O)(=O)c1ccc(Cl)c(C(=O)OCC(=O)c2[nH]c(C)c(C(C)=O)c2C)c1
→ -1%	-10%
O=C(NC1(O)C(=O)c2ccccc2C1=O)c1ccc(C(F)(F)F)cc1
→ -13%	-17%
Cc1ccccc1Cn1cccc(C(=O)Nc2nc3ccccc3s2)c1=O
→ -26%	-24%
COc1ccc(OC)c(-c2nc(C(=O)NCC3CCCO3)cc3c2[nH]c2ccccc23)c1 (stereo not given)
→ -16%	-18%
COc1ccc(-c2noc(CNC(=O)c3ccc(OC)cc3OC)n2)cc1
→ -1%	-11%
COCCNC(=S)N1CCc2cc(OC)c(OC)cc2C1COc1ccc(F)cc1 (stereo not given)
→ -14%	i
O=C(NCCO)/C(=C\c1ccc([N+](=O)[O-])o1)NC(=O)c1ccccc1
→ -10%	-20%
Cc1cc(NC(=O)CCC(=O)N(c2ccccc2)C(C(=O)NC2CCCC2)c2ccccc2F)no1 (stereo not given)
→ -2%	4%
CC(C)(C)S(=O)(=O)N1Cc2cc(=O)n(Cc3ccccc3)c(CCO)c2[C@H]1CCO
→ -13%	-12%
CN(C)c1cccc(C(=O)NCc2ccc3c(c2)OCO3)c1
→ -8%	?

Carrying on.
molecule,Vaccinia Venus,Vaccinia mCherry
CC(C)Oc1ccc(C(=O)NC2CCS(=O)(=O)C2)cc1 (stereo not given),-17%,-18%[1.46 µM]
O=C(NC(=S)Nc1ccc(CN2CCOCC2)cc1)c1cccc(F)c1,2%,-10%
CC12CCC(C(=O)N(CCCN3CCN(Cc4ccccc4)CC3)C1=O)C2(C)C (stereo not given),1%,-2%
O=C(COc1ccccc1)N=C1SC2CS(=O)(=O)CC2N1CCc1ccccc1 (stereo not given),-8%,-3%
CC1=C(C)CC(C(=O)NCc2ccccn2)C(C(=O)O)C1 (stereo not given),-8%,-2%
CCOC(=O)c1ccc(Nc2ccc([N+](=O)[O-])cn2)cc1,2%,-13%
CCCCn1nnnc1C(c1cccc(OC)c1OC)N1CCN(C/C=C/c2ccccc2)CC1 (stereo not given),-5%,33%[activator]
COc1cc(C(=O)Nc2nnc(C)s2)cc(OC)c1OC,-3%,-14%
CCCCC(=O)NCCNc1nc2c(c(=O)n(C)c(=O)n2C)n1Cc1ccccc1,2%,-4%
CCCCCCCCNS(=O)(=O)CCNCCc1ccccc1,?,-19%
CCN(CC)c1ccc(C(=O)NNC(=O)C2CCN(c3ncnc4sc(C)c(C)c34)CC2)cc1,-24%,-15%
O=C(O)C[C@H]1c2cc(C(F)(F)F)ccc2S(=O)(=O)N1Cc1ccccc1,-11%&-11%,-6%
Nc1nncn1C(=O)c1cccs1,-6%,i
C/C(Cc1ccccc1)=N\NC(=O)CNC(=O)c1ccc(Cl)cc1Cl,-20%,-8%
COc1ccc(C(=O)NCCCNC(=O)c2cc3ccccc3[nH]2)cc1OC,-15%,-6%
COc1ccccc1N1CCN(C(CNS(=O)(=O)c2cccs2)c2cccnc2)CC1 (stereo not given),1%,-5%
CC(C)(C)c1ccc(C(=O)NNC(=S)NC(=O)c2cccnc2)cc1,-14%,?
CCC(c1nnnn1-c1c(C)cccc1C)N1CCN(c2ccc(C(F)(F)F)cc2[N+](=O)[O-])CC1 (stereo not given),-13%,-21%
O=C(N/N=C/c1cccc2ccccc12)c1ccc(CN2CCOCC2)cc1,-28%,-19%
Cc1ccc(S(=O)(=O)NC[C@H]2O[C@@H](n3ccc(N)nc3=O)[C@H](O)[C@@H]2O)s1,-1%,-1%
O=C(NCc1ccco1)C1CCN(C(=O)Cc2ccccc2)CC1,-18%,.
CCN1/C(=C/c2cccc[n+]2C)Sc2ccc(OC)cc21,?,-2%
COC(=O)C1=C(C)N(C)C(=S)NC1c1c(OC)ccc2ccccc12 (stereo not given),-8%,-5%
COc1ccc(/C=N/Nc2ccc(C(F)(F)F)cc2[N+](=O)[O-])cc1O,-6%,-5%

Eleven structures from above, ordered by count of non-hydrogen atoms, lowest first.
molecule,Vaccinia Venus,Vaccinia mCherry
Nc1nncn1C(=O)c1cccs1,-6%,i
COc1cc(C(=O)Nc2nnc(C)s2)cc(OC)c1OC,-3%,-14%
CCCCCCCCNS(=O)(=O)CCNCCc1ccccc1,?,-19%
O=C(NCc1ccco1)C1CCN(C(=O)Cc2ccccc2)CC1,-18%,.
C/C(Cc1ccccc1)=N\NC(=O)CNC(=O)c1ccc(Cl)cc1Cl,-20%,-8%
O=C(O)C[C@H]1c2cc(C(F)(F)F)ccc2S(=O)(=O)N1Cc1ccccc1,-11%&-11%,-6%
O=C(N/N=C/c1cccc2ccccc12)c1ccc(CN2CCOCC2)cc1,-28%,-19%
CCCCC(=O)NCCNc1nc2c(c(=O)n(C)c(=O)n2C)n1Cc1ccccc1,2%,-4%
COc1ccccc1N1CCN(C(CNS(=O)(=O)c2cccs2)c2cccnc2)CC1 (stereo not given),1%,-5%
CCN(CC)c1ccc(C(=O)NNC(=O)C2CCN(c3ncnc4sc(C)c(C)c34)CC2)cc1,-24%,-15%
CCC(c1nnnn1-c1c(C)cccc1C)N1CCN(c2ccc(C(F)(F)F)cc2[N+](=O)[O-])CC1 (stereo not given),-13%,-21%

Later entries
molecule,Vaccinia Venus,Vaccinia mCherry
COC(=O)c1sc2cccc(F)c2c1S(=O)(=O)NCc1ccc(F)cc1,3%,-2%
COc1ccc(NC(=O)Cn2cc(C(=O)c3ccc(C)c(C)c3)c(=O)c3cc(OC)ccc32)cc1,-23%,-22%
CN(C)c1ccnc(-n2cccc2/C=N/OCc2ccc(F)cc2Cl)c1C#N,-18%,.
CN(C)c1ccc(Nc2ncnc3sc4c(c23)CCCC4)cc1,-12%,?
CCOC(=O)c1c(C)nc2ccccc2c1C,-20%,.
COc1ccc(CN2CCc3nc(Nc4ccccc4)ncc3C2)c(OC)c1OC,-23%,-14%
Cc1cccn2c(=O)cc(COc3cccc(NC(=O)Nc4cccc(Cl)c4)c3)nc12,-9%,-18%
O=C(Nc1cccc([N+](=O)[O-])c1)c1ccc2nsnc2c1,-19%,-6%
Cc1ccc(-c2csc(=Nc3ccc(F)cc3)n2Cc2ccc3c(c2)OCO3)cc1C,-13%,-18%
COc1ccc(OCCCn2c(C3CC(=O)N(c4ccc(F)cc4)C3)nc3ccccc32)cc1 (stereo not given),-18%,1%
COc1ccc(C2COc3cc(O)ccc3C2)c(OC)c1O (stereo not given),-25%,-18%
CN1CC(=O)N(CC(=O)Nc2cccc(S(=O)(=O)N3CCOCC3)c2)C1=O,2%,i
O=C(Cc1ccccc1)NCC(=O)Nc1cccc(Br)c1,-13%,i
O=C(NCc1ccccc1)C(C1CC1)n1c(CSCCOc2ccccc2)nc2ccccc21 (stereo not given),?,?
CS(=O)(=O)N1CCc2cc(C(=O)N3CCCC3)ccc21,-9%,-15%

Full records, looked up by structure. Values in the order: Vaccinia Venus	Vaccinia mCherry
Cc1cccn2c(=O)cc(COc3cccc(NC(=O)Nc4cccc(Cl)c4)c3)nc12 as listed: -9%	-18%
COc1ccc(CN2CCc3nc(Nc4ccccc4)ncc3C2)c(OC)c1OC as listed: -23%	-14%
